# Screens as filed in PubChem BioAssay.
# Marburg entry inh: Marburg virus entry inhibition; Marburg virus pseudotyped entry inhibition, cell reporter; control for the full effect not named in the record; about a third of the inactives were read at about 46 µM; Potency, µM (doses to about 37.8 µM), inactives show at the top dose activity change, negative = inhibition, most hits filed as inhibitors; 1.8% of 300,000 active; active = well fitted inhibition curve with a large enough effect; inconclusive = small, poorly fitted or top-dose-only effect, or effect the other way; inactive = flat fitted curve, though single readings scatter; tested in HEK293 cells; about a fifth of its hits are not listed in these tables; note: % is set by controls: 0 for no effect and ±100 for the full control effect; luciferase read-out
# RE007 growth inh: less growth of the S. pombe RE007 Vpr strain | S. pombe RE007 Vpr strain, BacTiter-Glo ATP luminescence, 24 h; control for the full effect not named in the record | Potency, µM (titrated, usually from 92.2 µM), for the others: at the highest dose activity change, negative = less growth | 0.21% of 360,000 active; active = well fitted falling curve with a large enough effect; inconclusive = small, poorly fitted or top-dose-only effect; inactive = no such curve, though single readings can be large or run the other way;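 note: % is set by controls: 0 for no effect and ±100 for the full control effect; nearly all actives have a fitted effect of over 50% in size; the assay follows cell death caused by Vpr and the record does not say whether a fall means rescue or toxicity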
#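 Fission yeast strain RE007, carrying one chromosomally integrated HIV-1 vpr copy, was seeded at OD 0.01 in PMG+AL medium with 23 nL pinned compound. After 24 h at 30 °C and 99% humidity, viability was read by BacTiter-Glo luminescence.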
# Cruzain inh noDet: inhibitors of Trypanosoma cruzi cruzain without detergent. Potency, µM, for the others: max response, negative = inhibition, most hits filed as inhibitors. 2.3% of 200,000 active. purified cruzain, Z-FR-AMC fluorescence, no detergent. P25779. AID 1476;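 note: plate controls were enzyme without inhibitor for no effect and buffer without enzyme for full effect; nearly all actives have a fitted effect of over 40% in size; top concentration of the series not given in the record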
# Target sequence (P25779 123-467 limits assumed): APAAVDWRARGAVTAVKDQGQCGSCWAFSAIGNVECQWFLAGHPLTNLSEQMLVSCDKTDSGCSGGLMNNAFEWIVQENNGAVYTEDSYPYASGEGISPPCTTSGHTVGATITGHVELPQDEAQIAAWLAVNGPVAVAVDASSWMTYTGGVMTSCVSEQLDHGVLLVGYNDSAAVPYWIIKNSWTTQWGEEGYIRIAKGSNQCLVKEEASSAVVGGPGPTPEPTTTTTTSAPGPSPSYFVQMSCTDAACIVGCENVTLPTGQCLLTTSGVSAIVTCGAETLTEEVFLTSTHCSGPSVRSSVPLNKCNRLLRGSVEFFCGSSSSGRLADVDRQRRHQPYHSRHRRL
#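 Detergent-free condition (0.00005% Triton X-100) in acetate buffer pH 5.5 with DTT. 1.5 nM enzyme and compound were pre-mixed 15 min, then 2 uM Z-FR-AMC substrate added; reaction progress from fluorescence change between first and third reads (60 s).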
# Lassa entry inh: inhibitors of Lassa virus binding or cell entry | Potency, µM (top dose mostly 37.9 µM), for the others: at the top dose activity change, negative = inhibition, hits mostly inhibitors | 1.2% of 300,000 active | Lassa virus pseudotype entry inhibition, cell reporter; control for the full effect not named in the record; active means well fitted inhibition curve with a large enough effect; inconclusive means small, poorly fitted or top-dose-only effect, or effect the other way; inactive means flat fitted curve, though single readings scatter; tested in HEK293 cells; note: % is set by controls: 0 for no effect and ±100 for the full control effect; nearly all actives have a fitted effect of over 50% in size; luciferase read-out
# StopGo reporter: lowers the luciferase signal of an FMDV 2A StopGo reporter; human cells with a luciferase reporter of 2A StopGo recoding; control for the full effect not named in the record; Potency, µM (titrated, usually from 57.9 µM), inactives show at the highest dose signal change, negative = less light; 1.2% of 410,000 active; AID 1159524; active = well fitted falling curve with a large enough effect; inconclusive = small, poorly fitted or top-dose-only effect; inactive = no such curve, though single readings can be large or run the other way; tested in HEK293T cells; note: % is set by controls: 0 for no effect and ±100 for the full control effect; nearly all actives have a fitted effect of over 45% in size; luciferase light after 4 h
# SARS PLpro yeast: blocks SARS-CoV papain-like protease in a yeast assay | 0.19% of 330,000 active | Potency, µM (doses to about 32.9 µM), for inactives: top-dose activity, positive = growth rescue | AID 485353 | S. cerevisiae expressing SARS-CoV PLpro, growth rescue; control for the full effect not named in the record; active means well fitted rising curve with a large enough effect; inconclusive means small, poorly fitted or top-dose-only effect; inactive means no such curve, though single readings can be large or run the other way; note: 0% is about no effect; nearly all actives have a fitted effect of over 55% in size; growth read by luminescence after 48 h
# NS1 function inh: blocks influenza NS1 protein function; 0.4% of 270,000 active; Potency, µM (highest dose often 46.1 µM), for inactives: top-dose activity, positive = more growth; S. cerevisiae slowed by influenza A NS1, growth recovery by OD600; active means well fitted rising curve with a large enough effect; inconclusive means small, poorly fitted or top-dose-only effect; inactive means no such curve, though single readings can be large or run the other way; note: nearly all actives have a fitted effect of over 50% in size
#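 Compounds were scored for reversing the slow growth caused by influenza A NS1 in S. cerevisiae, measured by optical density at 600 nm. Assay medium contained 2% galactose at pH 6.0; NS1-free yeast of the same strain were the positive control.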
# Cruzain inh Det: cruzain (T. cruzi) inhibition with detergent; 0.43% of 200,000 active; AID 1478; P25779; purified cruzain, Z-FR-AMC fluorescence, 0.01% Triton; Potency, µM, for inactives: max response, negative = inhibition, actives largely listed as inhibitors;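 note: plate controls were neutral wells for no effect and buffer without enzyme for full effect; nearly all actives have a fitted effect of over 40% in size; top concentration of the series not given in the record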
#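 Detergent-containing run (0.01% Triton X-100) in acetate buffer pH 5.5 with 5 mM DTT: enzyme at 1.5 nM final, 15 min compound preincubation at room temperature, then 2 uM Z-FR-AMC substrate. Activity taken as 60 s fluorescence increase at 360/450 nm.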
# Starred values were filed as active, the others as inactive; u = inconclusive; x = not tested or not shown; & = joins results of further samples; [ ] = dose if it differs, or a comment. Unless noted, calls come from the whole dose curve; as a rule, active = well fitted curve in the direction sought with a large enough effect; inconclusive = small, poorly fitted or top-dose-only effect, or another doubt; inactive = no such curve, though single readings can be large; an effect the other way counts as inactive or inconclusive. Potency is the fitted concentration of half-maximal effect.
SMILES,Marburg entry inh,RE007 growth inh,Cruzain inh noDet,Lassa entry inh,StopGo reporter,SARS PLpro yeast,NS1 function inh,Cruzain inh Det
CC/C(=N\O)c1ccc(OC)c(OC)c1,-5%[46.1 µM],-6%,2%,0%,-6%,-4%,-3%,5.9%
COc1ccc(C2OC(=O)CC2C(=O)NCc2ccccc2Cl)cc1OC (stereo not given),-1%[46.1 µM],4%,x,u,-6%,0%,x,x
CCOc1ccc(NC(=O)CSC2=Nc3ccccc3C3=NC(CCC(=O)NCc4cccs4)C(=O)N23)cc1 (stereo not given),x,x,-3%,-22%[46.1 µM],0%,x,x,-1.0%
O=C(CN1C(=O)NC2(CCCCCC2)C1=O)c1ccccc1,x,10%,x,x,19%,2%,2%,x
COc1ccc(NC(=O)CN2C(=O)NC(C)(c3ccc(C)cc3)C2=O)cn1 (stereo not given),-2%,27%,x,1%,-11%,2%,x,x
Clc1ccc(-c2ccnc(Oc3cc(Cl)ccc3Cl)n2)cc1,9%,-10%,10%,1%,u,-26%,3%,-1.8%
CCCCOC(=O)CSc1nc(N)c(C#N)c(-c2ccc(OC)cc2)c1C#N,4%&4%,12%,-3%,-8%,u,3%,3%,-2.8%
CC(=O)c1cc(CN2CCN(C(C)C)C(CCO)C2)cs1 (stereo not given),20%[46.1 µM],12%,x,0%[46.1 µM],-9%,0%,0%,x
CC1CCC(N2CCNCC2)CC1 (stereo not given),x,7%,x,x,-12%,1%,-2%,x
CSc1ccc2nnc(-c3cccc(F)c3)n2n1,5%,5%,6%,-6%,-3%,2%,-27%,2.1%
CN(C)C(=O)c1c(NC(=O)c2ccccc2F)sc2c1CCCC2,-10%[46.1 µM],x,-5%,-6%[46.1 µM],-4%,x,x,-4.2%
C=CCn1c(CNC(=O)c2ccccc2F)nnc1SCC(=O)N1CCOCC1,21%,-8%,x,2%,-6%,2%,11%,x
CCCCn1c(=O)c(CCC(=O)OCC(=O)Nc2cccc3ccccc23)nc2ccccc21,-8%,-19%,-5%,-24%,-9%,1%,-5%,-5.4%
Cc1cc(F)ccc1NC(=O)C(C)n1c2ccccc2c2nc(=O)cc(C)n21 (stereo not given),x,-8%,x,x,2%,0%,-3%,x
CCOc1ccccc1-n1nnc(-c2nc(-c3ccccc3C)no2)c1C,x,x,-7%,18%[46.1 µM],24%,x,x,3.1%
Cc1ccccc1Cn1nc(C)c(NC(=O)c2noc3c2CCc2ccccc2-3)c1C,0%,7%,-2%,x,u,-12%,-100%,-1.1%
CCN(Cc1ccccc1)S(=O)(=O)c1c(C)[nH]c(C)c1C(=O)N1CCCCC1,-13%[46.1 µM],11%,x,16%[46.1 µM],-6%,-1%,6%,x
CC(C)(C)OC(=O)N1CCC(c2c(C(=O)NCC3CCN(C4CCCC4)C3)cnn2-c2cccc(Cl)c2)CC1 (stereo not given),u,-13%,x,u,-13%,9%,14%,x
Nc1cc(Cl)nc(N/N=C/c2c(O)ccc3ccccc23)n1,u,-4%,-25%,u,-9%,2.5µM*,10%,-5.2%
Cc1ccc(/C=C2\SC(=S)N(NS(=O)(=O)c3ccc(C)cc3)C2=O)cc1,x,13%,x,x,0%,-2%,-10%,x
CCc1ccc(-c2cc(C(=O)NCc3ccccn3)c3ccccc3n2)cc1,u,-5%,u,u,33%[activator],-8%,-13%,-9.7%
CC(=O)c1cc2c(cc1NC(=O)Cn1nc(C)c(C)c(C#N)c1=O)OCO2,11%,8%,x,-7%,0%,6%,x,x
CC1CCN(c2nc3ccc(C(=O)N4CCN(Cc5ccc6c(c5)OCO6)CC4)cc3s2)CC1,3%,-15%,-3%,x,-14%,8%,9%,-2.4%
Cc1ccccc1Cn1cc(NC(=O)c2noc3c2CC(C(C)(C)C)CC3)cn1 (stereo not given),u,13%,u,-30%,1%,-4%,-33%,-0.5%
COc1cccc(CNC(=O)c2ccc3c(c2)nc2n3CCCCC2)c1OC,x,x,-11%,u,-6%,x,x,0.0%
CCOc1ccc(NC(=O)NC(=O)N(C(C)C)S(C)(=O)=O)cc1,6%[46.1 µM],3%,x,5%[46.1 µM],11%,1%,-1%,x
O=C(NCc1ccc(Cl)cc1)c1ccncc1,x,4%,x,x,-26%,7%,-2%,x
CCOC(=O)C1CCN(S(=O)(=O)c2ccc(C)c(C)c2)CC1,-21%[46.1 µM],-10%,x,-26%,-10%,1%,1%,x
CCn1c(SCC(=O)NC2CC2)nnc1C(C)Oc1ccccc1 (stereo not given),15%,9%,x,20%,-5%,-6%,6%,x
Cc1ccc2oc(C(=O)N(Cc3ccccc3)C3CCS(=O)(=O)C3)c(C)c2c1 (stereo not given),x,4%,x,x,-18%,-4%,-7%,x
COc1cc(OC)cc(C(=O)Nc2cccc(NC(=O)c3ccccc3)c2)c1,u,-10%,x,u,-18%,-1%,0%,x
CC(=O)NCc1ccc(C(=O)CCl)cc1,18%[46.1 µM],-2%,x,-8%[46.1 µM],32µM*,4%,x,x
CCOc1ccc(NC(=O)CN(C)C(=O)C2=COCCO2)cc1OCC,9%[46.1 µM],3%,x,7%,-17%,x,x,x
Cc1[nH]c(=O)[nH]c(=O)c1S(=O)(=O)N1CCN(c2ccccc2F)CC1,16%,9%,4%,4%,13%,-3%,2%,-0.9%
CCNS(=O)(=O)c1ccc(NC(=O)c2ccc(Cn3cc(Br)cn3)o2)cc1,u,-6%,-11%,-21%,u,-8%,-10%,-6.0%
c1cc(OCCCN2CCCCC2)ccc1CN1CCCCC1,u,-2%,x,7%[46.1 µM],-14%,2%,6%,x
COC(=O)c1ccccc1NC(=O)c1ccc2c(c1)C(=O)N(Cc1ccco1)C2=O,0%&0%,12%,x,6%,0%,x,-9%,x
CCSC1=C(C#N)C2(CCCC2)C(C#N)=C(N)N1,u,-5%,-16%,10%,-10%,7%,1%,-7.0%
O=S(=O)(c1ccccc1)N1CCN(c2cc(-c3ccccc3)nc3ncnn23)CC1,u,-1%,10%,15µM*,u,2%,-19%,1.3%
CCc1noc(C)c1C(=O)OCC(=O)c1ccc(NC(C)=O)cc1F,-2%[46.1 µM],-13%,x,-16%[46.1 µM],-3%,-4%,x,x
Nc1ccc(N)c(C(=O)O)c1,x,6%,x,x,-24%,-1%,0%,x
CC1CCN(C(=O)CSc2nnc(CN3CCOCC3)n2-c2ccccc2)CC1,u,-16%,4%,-25%[14.3 µM],-8%,4%,5%,7.3%
O=C(NC1CCCCC1)N1CCC(c2nc(-c3ccc(S(=O)(=O)N4CCCC4)cc3)no2)CC1,-3%&-24%,-21%,11%,10µM*,u,2%,1%,4.8%
Cc1ccc2cc(CCNC(=O)C(C)(C)C)c(=O)[nH]c2c1,x,-5%,2%,x,3%,4%,-8%,-1.0%
O=C(CCCC(=O)N(CC(=O)NC1CCCC1)c1cccc(F)c1)Nc1ccccn1,-7%[46.1 µM],11%,x,-28%[46.1 µM],-10%,-1%,6%,x
CCO[C@@H]1OC(C(=O)N2CCN(C)CC2)=C[C@H](c2ccc(C(F)(F)F)cc2)[C@H]1CCCO,x,-2%,x,x,-10%,1%,-5%,x
COC(=O)c1cnc(NCc2ccc(F)cc2)c2ccccc12,x,x,0%,-12%[46.1 µM],-11%,x,x,-11%
COc1ccc(NC(=S)Nc2cccc(Cl)c2Cl)cc1OC,-12%,-4%,x,13%,15%,-1%,x,x
O=[N+]([O-])c1ccc(Cl)cc1N/N=C/c1ccncc1,x,2%,x,x,-3%,6%,-14%,x
Cc1ccc2c(c1)N(CCCC(=O)NCc1cccnc1)C(=O)CO2,16%,-4%,-5%,4%,-2%,-10%,u,-1.2%
# The results go on.
SMILES,Marburg entry inh,RE007 growth inh,Cruzain inh noDet,Lassa entry inh,StopGo reporter,SARS PLpro yeast,NS1 function inh,Cruzain inh Det
COC(=O)N1CCc2c(sc(NC(=O)C3=COCCO3)c2C#N)C1,u,-9%,x,u,34%[activator],0%,x,x
COc1ccc(CC(=O)Nc2sc3c(c2C(=O)Nc2ccc(C)cc2)CCCCC3)cc1,x,x,-3%,17%[46.1 µM],9%,x,x,-11%
Cc1cccc(C)c1NC(=O)CNC(=O)c1ccc2c(c1)NC(=O)CS2,5%,-10%,x,-6%,9%,3%,x,x
NS(=O)(=O)c1ccc(CCNCC#Cc2ccccc2)cc1,x,2%,x,x,-12%,-3%,20%,x
COc1ccc(N2CCN(Cc3nc4ccccc4n3C)CC2)cc1,24%,13%,4%,10%,3%,23%,-18%,-1.9%
CC(C)Cn1c(=O)c(C(=O)N/N=C/c2cccc(F)c2)c(O)c2ccccc21,u,27%,-2%,13%,-28%,-1%,17%,-4.9%
N#Cc1cc2c(nc1SCC(=O)Nc1cc(Cl)ccc1Cl)C1CCN2CC1,-23%,-10%,19%,u,u,3%,0%,-7.1%
CCOc1ccc(NC(=O)c2cnsn2)cc1,8.9µM*,-17%,-9%,u,-16%,-10%,-1%,-1.6%
Cn1cccc1C(=O)Nc1nccs1,1%,16%,-14%,10%,73%[activator],5%,-21%,-3.6%
O=C(NCCOc1ccc(Cl)cc1)C1CC(=O)N(c2ccc(F)cc2)C1 (stereo not given),10%,0%,-4%,7%,x,1%,-10%,-0.5%
COc1cccc(/C=C2\SC(=N)N(c3ccc(F)cc3)C2=O)c1,13%[46.1 µM],10%,x,x,8%,2%,x,x
CC(/C=N/N1C(=O)CSC1=S)=C\c1ccccc1,18%[46.1 µM],-3%,x,-11%,-19%,0%,-1%,x
CCOC(=O)c1cn(CC)c2ccc(Br)cc2c1=O,0%,9%,-2%,11%,0%,11%,-61%,-3.4%
Cc1ccc(CC(=O)Nc2nc3ccccc3[nH]2)cc1C,11%,24%,u,3%,14%,5%,-4%,5.0%
Cn1c(CN2CCCC2)nc2cc(NC(=O)c3cccs3)ccc21,u,-6%,-9%,7%,29%,-3%,17%,-11%
c1ccc(CN2CCN(c3ncnc4nc[nH]c34)CC2)cc1,x,-2%,6%,x,-26%,0%,-3%,-8.2%
Cc1cc(=O)oc2cc(OCC(=O)OCC(=O)NCc3ccc4c(c3)OCO4)ccc12,11%&11%,4%,-22%,2%,2%,2%,-9%,-2.2%
